Bioassay records from PubChem.
FGF22 binding – binders of human FGF22 protein, primary screen, FGF22 synaptogenesis inhibitor project, biophysical, thermal shift, single point. 1.5% of 340,000 active. Fibroblast growth factor 22 (Homo sapiens), Q9HCT0. calls only at 9.99 µM. recombinant FGF22 thermal shift, SYPRO orange fluorescence; percent of sucrose octasulfate shift, DMSO zero;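 active = melting point raised past a set limit in the mean and every replicate; inconclusive = no clear call; three in four hits are not shown here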
Target sequence (Q9HCT0 whole entry, looked up): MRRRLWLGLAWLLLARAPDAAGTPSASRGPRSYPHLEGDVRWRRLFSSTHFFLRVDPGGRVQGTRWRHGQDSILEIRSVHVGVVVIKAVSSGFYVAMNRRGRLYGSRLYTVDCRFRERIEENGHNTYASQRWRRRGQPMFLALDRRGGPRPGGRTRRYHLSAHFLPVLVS
ALR H2O2 inh – inhibitors of human ALR sulfhydryl oxidase, primary screen, biochemical, H2O2 detection, HRP-luminol luminescence, single point | purified ALR, DTT oxidation | 3.8% of 290,000 active | AID 485317, 2010 | inhibition, % (test concentration not listed) | FAD-linked sulfhydryl oxidase ALR (Homo sapiens), P55789;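 active = mean and each replicate at 75% or more; inconclusive = only one of the two met; inactive = neither met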;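 note: stock transfer was 7.5 nL into about 7.5 µL; 0% = neutral wells and 100% = wells with inactivated enzyme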
Target sequence (P55789 whole entry, looked up): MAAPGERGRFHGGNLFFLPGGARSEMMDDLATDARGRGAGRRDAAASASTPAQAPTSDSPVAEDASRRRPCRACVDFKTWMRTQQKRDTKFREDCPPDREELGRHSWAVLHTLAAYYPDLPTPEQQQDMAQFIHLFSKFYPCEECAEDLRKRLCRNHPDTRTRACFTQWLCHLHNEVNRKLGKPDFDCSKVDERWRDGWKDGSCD
Ecoli rRNA inh – reduced GFP signal of wild-type E. coli, primary screen, bacterial rRNA inhibitor project, GFP/RFP fluorescence, OD600, single point; E. coli WT GFP vs humanized-ribosome RFP mutants, 24 h; hits give low values; DMSO median 0, no signal -100; GFP signal change (wild-type ribosome), % (no concentration beside the values); 1.6% of 350,000 active;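 active = significant combined selectivity score with lowered wild-type GFP, culture density cut under 30%, mutant RFP and density less affected; inactive = any of these conditions unmet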; note: one replicate is shown; some compounds called inactive have numbers as strong as hits
E coli growth – E. coli growth inhibition, primary screen, OD600; OD600 absorbance (no concentration beside the values); Escherichia coli growth, 23 h; hits give low values; AID 1053175, 2014; 0.21% of 330,000 active;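 active = OD600 absorbance below the run mean of sample wells minus 3.6 SD, in any replicate, cut at about 0.56 in these data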;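 note: stock transfer was 300 nL into about 60 µL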
Vif TR-FRET – inhibitors of Vif binding to APOBEC3G peptide, primary screen, biochemical, TR-FRET, GST-Vif 1-94, biotin-A3G peptide, dose response retest (AID 1117319); Virion infectivity factor (Human immunodeficiency virus type 1 group M subtype B (isolate …; TR-FRET GST-Vif / biotin-A3G peptide binding; higher % means a stronger effect; test concentration not given here; strong numbers were not always called active; inhibition, %; hits with a dose series show IC50 in µM; 0.57% of 260,000 active;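 active = above the screen mean plus three standard deviations and confirmed in dose response; inconclusive = results disagree or hit not tested in dose response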;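 note: Vif residues 1-94 fused to GST binding biotinylated APOBEC3G peptide 110-148; 0% = full assay without inhibitor and 100% = GST in place of GST-Vif; retest series ran down from 100 µM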
HNF4A DNA FP – change in binding of human HNF4A to DNA, primary screen, biochemical, fluorescence polarization, FITC-DNA. activity change, % at 10 µM. 0.3% of 360,000 active. AID 1224865, 2016. 1 h; in the data active = activity change above about 30%, passing the limit was not always enough;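 note: controls were the assay level and a saturating level of protein; the project sought stronger binding though the title names inhibitors; some compounds called inactive have numbers as strong as hits; positive values seem to mean higher polarization but the record does not say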
Target sequence (P41235 whole entry, looked up): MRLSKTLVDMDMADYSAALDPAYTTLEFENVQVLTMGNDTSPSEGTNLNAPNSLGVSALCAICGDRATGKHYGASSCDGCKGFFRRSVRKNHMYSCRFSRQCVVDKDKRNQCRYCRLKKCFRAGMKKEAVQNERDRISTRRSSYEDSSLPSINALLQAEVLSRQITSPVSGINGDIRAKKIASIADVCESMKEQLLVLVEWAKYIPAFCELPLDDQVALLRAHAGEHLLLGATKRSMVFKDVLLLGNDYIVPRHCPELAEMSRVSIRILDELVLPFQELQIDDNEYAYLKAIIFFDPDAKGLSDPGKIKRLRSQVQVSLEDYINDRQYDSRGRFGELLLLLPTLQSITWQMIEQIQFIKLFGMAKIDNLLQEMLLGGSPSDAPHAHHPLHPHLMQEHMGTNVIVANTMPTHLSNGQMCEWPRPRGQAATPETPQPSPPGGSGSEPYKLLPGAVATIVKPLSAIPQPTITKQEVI
AF4-AF9 inh – inhibitors of AF4 peptide binding to AF9, primary screen, biochemical, AlphaScreen, biotin-AF4 peptide, FLAG-AF9, single point; inhibition, % at 10 µM; 0.47% of 350,000 active; AID 651704, 2012;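 active = every replicate reaching a set inhibition limit, whatever the replicate mean, cut at about 25% in these data; inconclusive = mean inhibition reaches that limit but some replicates miss it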;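 note: 0% = plate neutral control median and 100% = total signal loss; the record names both 10 and 1 µM as test concentration; the first replicate is given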
Ecoli rRNA inh OD600 – also measured in Ecoli rRNA inh; calls as there; OD600 change, %; measured here: OD600 growth;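 optical density of the mix in the first replicate; 0 = DMSO median and -100 = no signal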
Ecoli rRNA inh RFP – second read-out of Ecoli rRNA inh, no call of its own (marks repeat the call); RFP signal change, %; measured here: RFP humanized mutant strains;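 first replicate; 0 = DMSO median and -100 = no signal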
Starred values were filed as active, the others as inactive; i = inactive; ? = inconclusive; . = not tested or not shown; & = joins results of further samples. The list is partial; rates above refer to the full screens.

canonical_smiles	FGF22 binding	ALR H2O2 inh	Ecoli rRNA inh	Ecoli rRNA inh OD600	Ecoli rRNA inh RFP	E coli growth	Vif TR-FRET	HNF4A DNA FP	AF4-AF9 inh
O=C(Nc1ncccn1)c1cc([N+](=O)[O-])cc([N+](=O)[O-])c1	.	-23	.	.	.	0.68	.	0.7	.
FC(F)(F)c1cnc(NNC(=S)Nc2ccccc2)c(Cl)c1	i	.	0	-25	-0.6	.	.	-4.7	2.7
CCCCC(=O)N(C)c1c(CC)nc2c(OCc3ccc(S(C)(=O)=O)cc3)cccn12	i	.	2	-5	2.6	.	.	2.6	-4.7
CC(C)C#Cc1ccc2c(c1)O[C@H](CN(C)C(=O)c1ccccn1)[C@H](C)CN([C@H](C)CO)S2(=O)=O	i	.	6	8	-3.5	.	.	.	1.3
O=C(NCCc1ccccc1)[C@H]1[C@H](CO)[C@H]2Cn3c(cccc3=O)[C@H]2N1Cc1cccnc1	i	.	0	3	2.8	.	.	.	-0.7
CCCCCOC(=O)Cn1c(N2CCOCC2)nc2c1c(=O)[nH]c(=O)n2C	.	-8	5	9	1.4	0.7	5%	3.0	.
Cn1c(CNC(=O)Nc2ccccc2)nnc1SCc1ccccc1	.	-2	.	.	.	0.75	-5%	-0.7	.
O=C(Nc1cccnc1)c1cc(F)cc(F)c1	.	-8	.	.	.	0.67	2%	-0.9	.
COCCNC(=O)C[C@H]1CC[C@H](NC(=O)NC2CCCC2)[C@@H](CO)O1	i	.	3	3	-0.7	.	.	.	-4.2
COc1cc2c(cc1NC(=O)CN(C)Cc1nc3ccccc3c(=O)[nH]1)oc1ccccc12	.	-6	.	.	.	0.72	-4%	3.4	.
COC(=O)[C@]1(Sc2ccccc2)CC(=O)N[C@@H]1c1ccccc1	i	.	-17	-7	-0.2	.	.	-5.9	-1.4
CC(C)c1ccc2oc(-c3ccc(N)cc3)nc2c1	.	16	.	.	.	0.72	21%	3.7	.
Cc1cc(C)c(N(C(=O)c2csnn2)C(C(=O)NC2CCCC2)c2ccncc2)c(C)c1 (centres undefined)	i	-2	2	5	-2.8	0.71	15%	1.1	1.2
O=C(NC1CCC1)[C@@H]1[C@@H](CO)[C@@H]2Cn3c(ccc(-c4ccccc4)c3=O)[C@@H]2N1Cc1ccccn1	i	.	0	-2	-3.1	.	.	.	-2.8
CCOCC(=O)Nc1ccc(Br)c(C)c1	i	3	0	-3	-1.6	0.66	.	2.5	-1.6
O=C(COC(=O)C12CC3CC(CC(Br)(C3)C1)C2)Nc1cccc(S(=O)(=O)N2CCOCC2)c1	i	6	-11	-31	1.3	0.64	-7%	3.3	3.1
Cc1ccc(Oc2nn[nH]n2)cc1	.	-4	.	.	.	0.69	5%	-3.3	.
Cn1cc(CN2CCC(Oc3ccc(C(=O)N4CCCC4)cc3)CC2)cn1	i	-2	0	1	-0.5	0.68	7%	1.0	-0.2
CC1(C)CCc2cc(CN3CCN(c4ccccn4)CC3)ccc2O1	i	1	7	9	-0.9	0.64	.	2.6	2.0
Cc1nn(Cc2ccc(Cl)c(Cl)c2)c(C)c1NC(=O)c1cc(-c2ccco2)on1	.	1	.	.	.	0.68	30%	4.4	.
COc1ccc(S(=O)(=O)Nc2cccc3c2O[C@H](CN(C)Cc2ccccc2)[C@H](C)CN([C@H](C)CO)C3=O)cc1	i	.	0	0	-1.7	.	.	.	0.1
COc1cccc(CNC(=O)[C@H]2CCCN2C(=O)[C@H]2CCCN2C(=O)c2ccc(F)c(F)c2)c1	i	.	17	14	4.1	.	.	.	-4.9
O=C(C[C@H]1CC[C@H]2NC[C@H](O)COC[C@@H]2O1)NC1Cc2ccccc2C1	i	.	1	1	-0.4	.	.	.	-0.8
CN1C(=O)c2cc(NC(=O)Cc3cccs3)ccc2OC[C@H]2O[C@H](CC(=O)NCC3CCCCC3)CC[C@H]21	i	.	-4	-22	-0.6	.	.	.	0.6
O=C(NC1CCC1)[C@H]1[C@H](CO)[C@H]2Cn3c(ccc(-c4cccc(F)c4)c3=O)[C@@H]1N2Cc1cocn1	i	.	7	26	-4.3	.	.	.	-27

3 compounds already listed, sorted by their value in Ecoli rRNA inh, highest first.
Molecule,Ecoli rRNA inh
O=C(NC1CCC1)[C@H]1[C@H](CO)[C@H]2Cn3c(ccc(-c4cccc(F)c4)c3=O)[C@@H]1N2Cc1cocn1,7
COCCNC(=O)C[C@H]1CC[C@H](NC(=O)NC2CCCC2)[C@@H](CO)O1,3
CCCCC(=O)N(C)c1c(CC)nc2c(OCc3ccc(S(C)(=O)=O)cc3)cccn12,2

More records follow.
canonical_smiles	FGF22 binding	ALR H2O2 inh	Ecoli rRNA inh	Ecoli rRNA inh OD600	Ecoli rRNA inh RFP	E coli growth	Vif TR-FRET	HNF4A DNA FP	AF4-AF9 inh
COC1OC(CO)C(N(C)C(C)=O)C1O (centres undefined)	i	.	.	.	.	.	.	3.5	-1.1
CCN(Cc1ccccc1)C(=O)c1ccc(Cl)cc1[N+](=O)[O-]	i	-23	-6	-1	0.8	0.67	19%	4.1	2.1
Cc1cc(C)cc(OCc2nnc(SCC(=O)Nc3ccccc3)o2)c1	.	5	.	.	.	0.65	1%	2.8	.
Cc1ccc(NC(=O)COC(=O)Cc2c[nH]c3ccccc23)cc1	i	.	-1	-1	-2.3	.	-3%	5.0	-4.9
COc1ccc(C)cc1NC(=O)CSc1nnc(COc2ccc(C)cc2)n1Cc1ccco1	.	.	.	.	.	0.72	1%&-6%	1.3	.
CCc1sc(C(=O)N2CCN(c3ncccn3)CC2)cc1Br	i	-7	-34	-31	-5.2	0.73	.	0.5	-2.3
CNC(=O)c1ccsc1NC(=O)c1ccccc1	i	47	-22	-28	-3.0	0.69	.	-2.5	1.7
Cc1ccccc1S(=O)(=O)Cc1ccc(C(=O)NCc2cccnc2)o1	.	-4	.	.	.	0.71	1%	-1.2	.
Cc1noc(C)c1S(=O)(=O)Nc1ccc2c(c1)CC(=O)N([C@@H](C)CO)C[C@H](C)[C@H](CN(C)Cc1ccc(C(F)(F)F)cc1)O2	i	.	-3	-12	4.5	.	.	.	3.7
CN(C)C(=O)[C@H]1[C@H](CO)[C@H]2Cn3c(ccc(-c4ccccc4)c3=O)[C@H]2N1C(=O)c1ccccn1	i	.	0	-3	-0.6	.	.	.	0.4
CC(=O)c1cccc(NC(=O)C2CCN(C(=O)c3ccc([N+](=O)[O-])cc3)CC2)c1	i	-10	12	2	3.1	0.69	-1%	2.4	-1.9
COCCN(C(=O)CSc1nnc(-c2ccccc2OC)o1)c1c(N)n(CC(C)C)c(=O)[nH]c1=O	i	-4	9	8	7.4	0.69	2%	-1.3	0.0
O=C(CCS(=O)(=O)c1ccccc1)Nc1nnc(C(F)(F)F)s1	i	.	4	-4	1.2	0.67	.	-5.9	1.4
O=C(Nc1cc(Cl)ccc1-n1cncn1)c1ccc(F)c(S(=O)(=O)N2CCOCC2)c1	i	0	7	11	2.7	0.63	-18%	3.4	-1.2
COc1ccc(C(=O)NNC(=O)c2ccccc2[N+](=O)[O-])cc1Br	i	22	3	1	1.4	0.68	?	-1.4	1.1
COc1cccc(C(C(=O)NC2CCCC2)N(C(=O)c2ccco2)c2ccc(-n3cnnn3)c(C)c2)c1OC (centres undefined)	i	-11	-10	-8	2.0	0.69	-13%	-3.9	-2.6
COc1ccc(-c2ccc(C(=O)NC(C)C)c3occc23)c(C)c1	i	.	-45	-68	-13	.	.	-6.5	-0.1
CN(C)/C=N/c1ncc(C(=O)c2ccc(Cl)cc2Cl)s1	i	.	-15	-10	-2.8	.	-11%	-1.1	3.5
CO[C@@H]1CN(C)C(=O)c2cc(NS(=O)(=O)c3cn(C)cn3)ccc2OC[C@H](C)NC[C@@H]1C	i	.	0	3	-2.4	.	.	.	-3.1
O=C(NC(=S)N1CCN(c2ccc(F)cc2)CC1)c1ccccc1	i	.	-51	-67	-19	.	-3%	-1.8	1.7
C=C(C)CN(CC)C(=O)CN1C(=O)NC(C)(c2ccc3ccccc3c2)C1=O (centres undefined)	i	-25	-6	-1	-0.9	0.66	-6%	0.1	-2.8
COc1ccc(-c2ccc(C#N)c(SCC(=O)Nc3sc4c(c3C#N)CCC4)n2)cc1OC	.	21	.	.	.	0.73	>100µM*	47*	.
O=C(CN1CCN(C(=O)C2CCCO2)CC1)Nc1ccc(F)cc1 (centres undefined)	i	-3	14	18	0.8	0.66	6%	2.9	-1.8
CNC[C@@H]1OCc2ccccc2-c2c(n(C)c3ccccc23)C(=O)N([C@H](C)CO)C[C@H]1C	i	.	6&5	11&11	2.3&-2.6	.	1%	-0.3	4.2&1.6
CC(=O)NCC(=O)N(Cc1ccco1)C1(C(=O)NC2CCCCC2)CCCCC1	.	0	.	.	.	0.71	-1%	-1.8	.
CCCS(=O)(=O)N1CCC(C(=O)NCCCN2CCC(Cc3ccccc3)CC2)CC1	.	-7	.	.	.	0.7	-1%	0.0	.
Cc1noc(C)c1NC(=O)N(C)C[C@H]1OCCCC[C@H](C)Oc2ccc(NC(=O)CCC(F)(F)F)cc2C(=O)N([C@@H](C)CO)C[C@H]1C	i	.	3	8	-2.6	.	.	.	0.7
O=C(NC1CCCCC1)N1CC(=O)N2[C@H](CO)[C@@H](c3ccc(-c4cccc(F)c4)cc3)[C@H]2C1	i	.	-2	-27	18	.	.	.	-2.4
O=C(Nc1ccc(Cl)cc1)N1CCSc2ccccc21	.	-65	.	.	.	0.72	-1%	-1.9	.
O=C(Nc1cccc(F)c1)N1CCCCN2[C@@H](CO)[C@@H](c3ccc(-c4ccccc4F)cc3)[C@@H]2C1	i	.	-57	-76	-15	.	.	.	4.7
O=C(Nc1cccc([N+](=O)[O-])c1)C1COc2ccccc2O1 (centres undefined)	i	-2	-2	4	4.8	0.68	.	0.5	2.0
COc1ccc(S(=O)(=O)Nc2ccc3c(c2)CC(=O)N([C@@H](C)CO)C[C@H](C)[C@@H](CN(C)S(=O)(=O)c2ccc(F)cc2)O3)cc1	i	-3	-4&6	0&7	-1.1&17	.	.	5.4	-9.1
COc1ccc(OC)c(NC(=O)C2CC(=O)N(Cc3ccco3)C2)c1 (centres undefined)	i	.	5	13	-1.8	0.66	2%	-0.9	-3.3
O=C(O)c1cccc(S(=O)(=O)Nc2ccc([N+](=O)[O-])cc2O)c1	i	.	10	5	-4.1	0.7	19%	-3.7	-20
O=C(NC1CC1)c1ccc(CS(=O)(=O)c2c(Cl)cccc2Cl)o1	i	-5	9	12	0.8	0.73	-1%	-1.4	-5.2
COc1ccc(C2NCCCC2c2ccccc2)cc1 (centres undefined)	i	.	6	0	0.3	.	-1%	-2.4	2.1
CN(Cc1ccccc1)C(=O)c1csc([C@@H]2O[C@H](CO)[C@H](O)[C@H](O)[C@H]2O)n1	i	.	10	28	0.3	.	.	-0.2	-4.4
C[C@H](CO)N1C[C@H](C)[C@@H](CN(C)CC2CCCCC2)OCCCC[C@H](C)Oc2ccc(NC(=O)Nc3ccc(F)cc3)cc2C1=O	i	.	7	-8	16	.	.	.	5.5
